# Screening data as filed in PubChem.
# RGS16-Gao: modulators of RGS16 binding to Galphao, primary screen, biochemical, human proteins, multiplexed bead flow cytometry; bead-based flow cytometry RGS16-Galphao binding, fluorescence; actives lie on both sides; binding response (% of control), % at 10 µM; 0.38% of 220,000 active; AID 1441, 2008;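 active = below 25% or above 175%, edge rows of some plates excepted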;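 also: Galphao activated by GDP with aluminum fluoride before binding; 100% = wells without compound and 0% = beads without RGS; some results beyond the cut were filed as inactive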
# INS promoter inh: inhibitors of insulin promoter-driven GFP, primary screen, imaging, TRM-6 cells (human fetal islet line), eGFP reporter, cell count; AID 1273, 2008; reporter expression induced with tamoxifen; 0.9% of 130,000 active; inhibition, % at 2 µM;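 active = inhibition above the mean plus 3 SD, with well images judged a real hit on visual review, cut at about 60% in these data, passing the limit was not always enough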
# HSV augment: enhancers of HSV replication in host cells, fold increase, host cell viability | maximum fold increase | 0.005% of 220,000 active | HSV replication augmentation in cells | AID 1956, 2009;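 active = peak rise of 1.5-fold or more in the series; tested in PC3 cells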;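 also: first round at 10 µM; read as green reporter fluorescence; hits show the peak of a series up to 25 µM; 1 = signal of infected wells without compound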
# PKD1 kinase inh: inhibitors of human PKD1 kinase, biochemical, fluorescence polarization; PKD1 kinase fluorescence polarization assay; Serine/threonine-protein kinase D1 (Homo sapiens), Q15139; AID 797, 2007; 0.056% of 200,000 active; inhibition, %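 (about 10 µM by stock and volumes)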;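 active = inhibition of 50% or more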;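 also: controls were vehicle for no effect and a reference inhibitor for full effect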
# Target sequence (Q15139 whole entry, looked up): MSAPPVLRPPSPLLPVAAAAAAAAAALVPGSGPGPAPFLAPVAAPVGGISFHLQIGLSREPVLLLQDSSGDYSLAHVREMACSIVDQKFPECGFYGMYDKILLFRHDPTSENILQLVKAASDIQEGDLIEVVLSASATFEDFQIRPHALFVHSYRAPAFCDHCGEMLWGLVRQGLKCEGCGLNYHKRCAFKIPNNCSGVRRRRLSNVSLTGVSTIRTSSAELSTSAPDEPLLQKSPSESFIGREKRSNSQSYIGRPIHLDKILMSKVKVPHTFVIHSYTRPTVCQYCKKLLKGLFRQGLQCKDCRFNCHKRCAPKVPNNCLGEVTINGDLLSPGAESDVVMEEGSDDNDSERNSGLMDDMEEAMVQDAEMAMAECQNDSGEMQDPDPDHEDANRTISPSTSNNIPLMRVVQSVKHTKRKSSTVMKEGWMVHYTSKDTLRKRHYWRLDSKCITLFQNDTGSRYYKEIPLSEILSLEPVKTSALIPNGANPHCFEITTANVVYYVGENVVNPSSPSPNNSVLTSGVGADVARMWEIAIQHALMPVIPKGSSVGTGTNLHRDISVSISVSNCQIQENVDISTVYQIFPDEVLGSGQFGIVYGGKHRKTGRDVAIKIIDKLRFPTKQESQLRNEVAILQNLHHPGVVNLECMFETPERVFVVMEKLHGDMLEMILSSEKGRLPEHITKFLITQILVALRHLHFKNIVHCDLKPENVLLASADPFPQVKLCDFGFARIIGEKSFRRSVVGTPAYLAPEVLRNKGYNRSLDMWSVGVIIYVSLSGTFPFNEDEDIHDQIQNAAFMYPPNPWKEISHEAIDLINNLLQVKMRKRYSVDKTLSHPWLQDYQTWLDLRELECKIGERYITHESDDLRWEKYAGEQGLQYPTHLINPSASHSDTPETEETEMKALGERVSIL
# GALR2 ag: GALR2 receptor agonists, primary screen, cell-based; activation, %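 (tested at 5 µM)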; GALR2-expressing cells, agonist activation read-out; Galanin receptor type 2 (Homo sapiens), O43603; 0.48% of 140,000 active; AID 803, 2007;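 active = above mean plus 3 SD of all compounds, about 5% in these data, not always enough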;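 also: 0% = vehicle buffer wells and 100% = reference agonist at full effect; tested in CHO reporter cells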
# INS promoter inh cell count: recorded beside INS promoter inh, whose call it bears; normalized cell count, %; measured here: cell count, toxicity; reference of the scale not given here;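 cells exposed to compound for 48 h; stained nuclei by imaging scaled within each plate; lower means fewer cells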
# HSV augment primary fold: recorded beside HSV augment, whose call it bears; fold increase; compound at 10 µM; measured here: primary screen fold increase 10 uM; tested in PC3 cells;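 GFP signal in the first replicate; 1 = infected wells without compound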
# The depositor's hits bear a star; i = inactive; nt = not tested or not shown.
mol	RGS16-Gao	INS promoter inh	INS promoter inh cell count	HSV augment	HSV augment primary fold	PKD1 kinase inh	GALR2 ag
Cc1cccc(C(=O)NCCN2CCCC2)c1	104	nt	nt	i	1	3	-1.6
Cn1ncc(Cl)c1C(=O)N1CCc2ccccc21	94	nt	nt	i	0.88	-1	-3.8
O=C1N/C(=N\N=C\c2cccs2)SC1Cc1cccc(Cl)c1Cl (stereo not drawn)	158	nt	nt	i	1.1	0	-1.1
COc1ccc(OC)c(CN2CCN(S(=O)(=O)c3ccc(NC(C)=O)cc3)CC2)c1	105	nt	nt	i	0.93	2	nt
CC(=O)Nc1ccc(S(=O)(=O)N2CCN(c3cnn(C)c(=O)c3Cl)CC2)cc1	104	nt	nt	i	0.91	-3	nt
CC(NC(=O)CCc1nnc(-c2ccc(-c3ccccc3)cc2)o1)c1nc2ccccc2[nH]1 (stereo not drawn)	115	nt	nt	i	1	-4	nt
COC(=O)c1cc(S(=O)(=O)N(C)C2CCCCC2)oc1C	100	nt	nt	i	1.1	nt	nt
O=C(CCc1c[nH]c2ccccc12)N1CCN(c2ccc(O)cc2)CC1	136	19	57	i	0.87	-4	nt
O=C(c1ccco1)N1CCN(C2CC(=O)N(c3ccc4c(c3)OCO4)C2=O)CC1 (stereo not drawn)	102	31	68	i	0.79	-10	-1.9
Nc1ccc(-n2ccnc2)cc1	107	nt	nt	i	0.86	-12	-0.2
O=C(CSc1nc(O)cc(=O)n1C1CCCC1)Nc1cccc(Cl)c1Cl	100	nt	nt	i	0.96	1	nt
Cc1ccc(C(=O)N/C(=C/c2ccc(-c3cccc([N+](=O)[O-])c3)o2)C(=O)NCCCN(C)C)cc1	96	nt	nt	i	0.62	9	nt
N#CCCn1cc(C(=O)Nc2ccc(C(=O)O)cc2)c(-c2ccc([N+](=O)[O-])cc2)n1	91	nt	nt	i	1.1	-8	nt
COc1ccc(N(C)S(=O)(=O)c2ccc(Cl)c(C(=O)NCCc3ccc(Cl)cc3)c2)cc1	102	-94	39	i	0.91	4	nt
NC(=O)NC(=O)Nc1ccccc1Cl	99	6	49	i	1	2	-2.9
O=C(c1ccccc1F)N1CCN(Cc2ccccc2F)CC1	107	-493	25	i	0.95	5	-1.8
Cc1cc(C)cc(N2Cc3ccccc3C2)c1	100	nt	nt	i	1	-2	-2.0
COc1ccc(CCn2cc(C#N)c(=O)[nH]c2=O)cc1OC	107	-82	75	i	1.3	-8	nt
CC1(C)CC(=O)C(C#N)=C(NCCCO)C1	102	66	151	i	0.95	0	-1.9
Cc1ccc(SC[C@H](c2ccccc2)N2CCN(CC(C)C)CCC2=O)cc1	99	nt	nt	i	0.89	nt	nt
C=CCn1c(SCC(=O)NCc2ccc3c(c2)OCO3)nc2scc(-c3ccccc3)c2c1=O	94	-26	112	i	0.82	-1	-1.3
Cc1cc(/C=C(\C#N)C(=O)NCc2ccco2)c(C)n1-c1ccc(C(=O)O)cc1	105	-4	133	i	0.99	-7	nt
O=C(CN1C(=O)c2cccc3cccc1c23)Nc1ccc(S(=O)(=O)N2CCOCC2)cc1	55	-16	123	i	0.9	-4	-1.3
COc1ccc(NC(=S)N(CCCN2CCOCC2)Cc2ccco2)cc1	94	-33	158	i	0.97	2	nt

# Entries shown so far containing two or more sulfur atoms, in the order listed:
mol	RGS16-Gao	INS promoter inh	INS promoter inh cell count	HSV augment	HSV augment primary fold	PKD1 kinase inh	GALR2 ag
O=C1N/C(=N\N=C\c2cccs2)SC1Cc1cccc(Cl)c1Cl (stereo not drawn)	158	nt	nt	i	1.1	0	-1.1
C=CCn1c(SCC(=O)NCc2ccc3c(c2)OCO3)nc2scc(-c3ccccc3)c2c1=O	94	-26	112	i	0.82	-1	-1.3

# Carrying on:
mol	RGS16-Gao	INS promoter inh	INS promoter inh cell count	HSV augment	HSV augment primary fold	PKD1 kinase inh	GALR2 ag
N#Cc1nc(-c2cccs2)oc1NCC1CCCO1 (stereo not drawn)	93	56	105	i	1.1	-4	1.2
Cc1ccc2c(Cl)cc(Cl)c(OCC(=O)Nc3cc(S(=O)(=O)N(C)C)ccc3C)c2n1	98	nt	nt	i	0.99	-5	1.7
S=C(NCc1ccco1)Nc1ccc(Cl)c(Cl)c1	102	-7	119	i	0.9	-3	-2.3
CCCCOc1ccc(S(=O)(=O)NNC(=O)C2Cc3c(ccc4ccccc34)O2)cc1 (stereo not drawn)	111	-43	73	i	0.97	-14	-1.7
CN(C)C(=O)c1ccc(-c2nnc(NCc3ccccc3)c3ccccc23)cc1	98	44	93	i	1	8	-0.5
CCOC(=O)N1CCC(n2c(SCC(=O)Nc3ccccc3OC)nc3ccccc3c2=O)CC1	100	48	125	i	0.86	-1	0.1
O=C(/C=C/c1ccccc1)Nc1ccc(NC(=O)c2cccs2)cc1	90	nt	nt	i	1	nt	nt
Fc1ccccc1OCCSc1nc2ccccc2o1	95	-4	97	i	0.89	-1	-2.6
COc1cccc(/C=N/Nc2snc(SC)c2C#N)c1	96	57	57	i	0.96	-3	-1.3
COc1ccc(-c2noc(-c3ccccc3C(=O)NCC3CCCO3)n2)cc1 (stereo not drawn)	100	nt	nt	i	1	nt	nt
Cc1c(C(=O)OCc2nc3scc(-c4ccccc4)c3c(=O)[nH]2)cccc1[N+](=O)[O-]	108	-14	173	i	0.95	-2	-0.5
Cn1c(N)c(N2CCN(c3ccccc3)CC2)c(=O)[nH]c1=O	103	nt	nt	i	1	-6	nt
O=C(CCCN1C(=O)c2ccccc2C1=O)NCc1cccnc1	103	-473	47	i	0.66	-6	-0.9
Cc1ccc(SCCC(=O)OCn2nnc3ccccc3c2=O)cc1	111	27	66	i	0.83	-4	nt
CC1CC(C)CN(CC(=O)N2CCOCC2)C1 (stereo not drawn)	97	nt	nt	i	1	-2	nt
CCC1Oc2ccccc2N(CC(=O)Nc2ccc3c(c2)OCCO3)C1=O (stereo not drawn)	101	-23	132	i	0.93	-14	0.1

# 15 entries from above, with two lines to a compound:
# The line under a structure holds: RGS16-Gao, INS promoter inh, INS promoter inh cell count, HSV augment, HSV augment primary fold, PKD1 kinase inh, GALR2 ag
O=C(CN1C(=O)c2cccc3cccc1c23)Nc1ccc(S(=O)(=O)N2CCOCC2)cc1
  55, -16, 123, i, 0.9, -4, -1.3
COc1ccc(NC(=S)N(CCCN2CCOCC2)Cc2ccco2)cc1
  94, -33, 158, i, 0.97, 2, nt
N#Cc1nc(-c2cccs2)oc1NCC1CCCO1 (stereo not drawn)
  93, 56, 105, i, 1.1, -4, 1.2
Cc1ccc2c(Cl)cc(Cl)c(OCC(=O)Nc3cc(S(=O)(=O)N(C)C)ccc3C)c2n1
  98, nt, nt, i, 0.99, -5, 1.7
S=C(NCc1ccco1)Nc1ccc(Cl)c(Cl)c1
  102, -7, 119, i, 0.9, -3, -2.3
CCCCOc1ccc(S(=O)(=O)NNC(=O)C2Cc3c(ccc4ccccc34)O2)cc1 (stereo not drawn)
  111, -43, 73, i, 0.97, -14, -1.7
CN(C)C(=O)c1ccc(-c2nnc(NCc3ccccc3)c3ccccc23)cc1
  98, 44, 93, i, 1, 8, -0.5
CCOC(=O)N1CCC(n2c(SCC(=O)Nc3ccccc3OC)nc3ccccc3c2=O)CC1
  100, 48, 125, i, 0.86, -1, 0.1
O=C(/C=C/c1ccccc1)Nc1ccc(NC(=O)c2cccs2)cc1
  90, nt, nt, i, 1, nt, nt
Fc1ccccc1OCCSc1nc2ccccc2o1
  95, -4, 97, i, 0.89, -1, -2.6
COc1cccc(/C=N/Nc2snc(SC)c2C#N)c1
  96, 57, 57, i, 0.96, -3, -1.3
COc1ccc(-c2noc(-c3ccccc3C(=O)NCC3CCCO3)n2)cc1 (stereo not drawn)
  100, nt, nt, i, 1, nt, nt
Cc1c(C(=O)OCc2nc3scc(-c4ccccc4)c3c(=O)[nH]2)cccc1[N+](=O)[O-]
  108, -14, 173, i, 0.95, -2, -0.5
Cn1c(N)c(N2CCN(c3ccccc3)CC2)c(=O)[nH]c1=O
  103, nt, nt, i, 1, -6, nt
O=C(CCCN1C(=O)c2ccccc2C1=O)NCc1cccnc1
  103, -473, 47, i, 0.66, -6, -0.9
